Assay outcomes deposited in PubChem BioAssay by several laboratories.
PABP FP inh: PABP poly(A) RNA binding inhibitors, primary screen, biochemical, fluorescence polarization, uHTS; Polyadenylate-binding protein 1 (Homo sapiens), P11940; inhibition, % at 35 µM; 1% of 290,000 active;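 active = 50% or more with normal probe brightness, or confirmed in later tests; about a fifth of its hits are not listed in these tables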;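 also: calls also rest on retests at 20 µM and on dose response follow-up; controls were probe without protein and protein plus probe with vehicle; some compounds called inactive have numbers as strong as hits; many hits fall short of the cut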
CSC inhib: cancer stem cell viability inhibitors, primary screen, luminescence | inhibition, % at 7.5 µM | 1.1% of 300,000 active | AID 2717, 2010 | cancer stem cell-like cells viability;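 active = mean at 75% or more and at least half the replicates too; tested in HMLE shEcad cells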;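 also: 0% = median of negative and 100% = median of positive control wells; the first replicate is given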
eIF4H FP inh: human eIF4H binding inhibitors, primary screen, translation initiation inhibitor project, biochemical, uHTS, fluorescence polarization; Eukaryotic translation initiation factor 4H (Homo sapiens), Q15056; inhibition, % at 35 µM; 0.94% of 290,000 active; eIF4H fluorescence polarization binding assay;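 active = 50% or more with normal probe brightness, or confirmed in later tests; about a fifth of its hits are not listed in these tables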;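 also: calls also rest on retests at 20 µM and on dose response follow-up; 0% = protein and probe with vehicle and 100% = probe without protein; strong numbers were not always called active; many hits fall short of the cut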
HIV Env fusion: inhibitors of HIV-1 Env-driven cell-cell fusion, primary screen, HeLa-JRFL effector, CEM21 target cells, luciferase; 1.1% of 360,000 active; inhibition, % at 12.3 µM;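 active = mean replicate inhibition score of at least 50 and every replicate individually at or above 50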;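 also: 0% = plate neutral controls and 100% = maraviroc near 300 nM; one replicate is shown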
Rce1 inh: yeast Rce1p protease inhibitors, primary screen, biochemical, fluorescence, cell-free homogeneous; CAAX prenyl protease 2 (Saccharomyces cerevisiae (strain ATCC 204508 / S288c)), Q03530; yeast membranes, quenched prenylated peptide cleavage fluorescence; calls only; 0.27% of 290,000 active; AID 2563, 2010;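 active = fall in fluorescence gain of 50% or more versus controls, with final raw signal at or below 3038400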;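 also: plate controls were neutral control wells for no effect and wells lacking membranes for full effect; tested at 10 µM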
Target sequence (Q03530 whole entry, looked up): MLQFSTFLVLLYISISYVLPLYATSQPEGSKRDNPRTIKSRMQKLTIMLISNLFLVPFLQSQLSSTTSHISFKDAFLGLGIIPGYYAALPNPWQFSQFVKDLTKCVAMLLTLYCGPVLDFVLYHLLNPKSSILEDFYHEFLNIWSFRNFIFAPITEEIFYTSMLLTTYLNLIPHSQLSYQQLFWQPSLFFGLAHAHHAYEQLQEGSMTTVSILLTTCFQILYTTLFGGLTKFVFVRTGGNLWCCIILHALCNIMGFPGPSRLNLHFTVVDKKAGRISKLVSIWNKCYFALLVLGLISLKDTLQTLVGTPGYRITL
Yeast UUG start: modulators of yeast start codon fidelity, primary screen, whole organism, S. cerevisiae, single point, plate reader | activity score, % at 18.7 µM | 0.13% of 350,000 active | S. cerevisiae UUG-firefly luciferase reporter, luminescence/redox ratio;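 active = replicate mean at a twofold rise or more, about +100% in these data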;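 also: firefly luciferase made from a UUG start codon reports start codon fidelity; reporter light over untreated wells divided by growth signal over untreated wells; some hits fall short of that in this replicate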
MT1-MMP act inh: blockers of MT1-MMP proenzyme processing, primary screen, HT1080 RFP-PRO-GFP cells, GFP/RFP fluorescence; GFP/RFP ratio fluorescence, overnight; percent of plate control window, DMSO zero; GFP/RFP ratio change, % at 20 µM; 0.061% of 360,000 active; AID 651647, 2012;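 active = GFP/RFP ratio change of at least 30% with cell ATP level not reduced by more than half and red fluorescence within 50% of control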; also: strong numbers were not always called active
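Assay system: HT1080 cells carrying an RFP-PRO-GFP reporter | Dosing: Single dose of 20 µM compound, 1% DMSO final | Incubation: Cells overnight before dosing, compound overnight, 37 °C, 5% CO2 | Evaluation: GFP/RFP fluorescence ratio | Control set: DMSO and RFP-L50D-GFP cell wells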
eIF4H FP inh retest: second read-out of eIF4H FP inh, no call of its own (marks repeat the call); inhibition, %; compound at 20 µM; confirmation average;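 mean of two retest wells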
PABP FP inh retest: further read-out of PABP FP inh, marked with its call; inhibition, %; compound at 20 µM; confirmation repeats;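 mean of two retest wells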
MT1-MMP act inh RFP: second read-out of MT1-MMP act inh, no call of its own (marks repeat the call); RFP signal change, %; measured here: RFP expression control read;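 0 = vehicle wells; hits needed this value within 50% of zero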
Starred values were filed as active, the others as inactive; i = inactive; . = no result given; + = active, no number.

SMILES	PABP FP inh	CSC inhib	eIF4H FP inh	HIV Env fusion	Rce1 inh	Yeast UUG start	MT1-MMP act inh	MT1-MMP act inh RFP	others
O=C(N/N=C/c1c[nH]c2ccccc12)c1ccccc1O	-9	-7	-3	-15	i	-19	4	-1
Cc1cccc(-c2n[nH]c(S(C)(=O)=O)c2C#N)c1	1	-5	-1	2	i	.	3	2
CC(=O)c1sc(NC(=O)c2cc(S(=O)(=O)N3CCOCC3)ccc2F)nc1C	.	4	.	.	.	-6	-3	1
CNC(=O)c1ccsc1NC(=O)c1ccccc1	17	-2	-5	-17	i	-2	-1	0
C=CCN(C(=O)C1CC(=O)N(C2CCCC2)C1)c1nc(-c2ccc(S(C)(=O)=O)cc2)cs1 (stereo unspecified)	.	.	.	1	.	19	-10	-17
COc1cc(NC(=O)c2ccc(COCC(F)(F)F)cc2)cc(OC)c1OC	3	6	-4	.	i	-19	-4	-2
CC(C)(C)NC(=O)COC(=O)Cc1ccc(Cl)cc1	7	8	-4	24	i	-7	-2	-3
CC(C)c1ccc(OCC(=O)NNC(=S)NC(=O)C2CC2)cc1	-4	-11	12	.	i	-66	-2	2
O=C(Nc1ccccc1)c1cccc(S(=O)(=O)Oc2ccc([N+](=O)[O-])cc2)c1	-7	7	3	22	i	.	0	-1
C=CC1=C(C(=O)O)N2C(=O)C(NC(=O)Cc3ccccc3)C2SC1 (stereo unspecified)	8	-10	8	12	i	-12	-7	-3
CCCc1n(CC)c2ccccc2[n+]1CC(O)COC1CCCCC1 (stereo unspecified)	0	-8	-6	-3	i	-7	2	-3
Cc1ccc(C)c(NC(=O)c2c(Cl)nc3ccccn23)c1	-7	8	-4	-10	i	.	3	3
COc1ccccc1NC(=O)c1sc2nc(Cc3ccccc3)cc(C(F)(F)F)c2c1N	113*	2	65*	.	i	.	-110	0
CCC(O)(CCN1CCCCC1)c1ccccc1 (stereo unspecified)	-12	4	-5	.	i	-11	3	5
CCOc1ccc(C(C)=O)cc1CN1C(=O)NC(C)(C2CC2)C1=O (stereo unspecified)	10	-7	-8	6	i	-25	1	1
CN1CCN(CCCNC(=O)c2ccc(Cn3c(=S)[nH]c4ccc(Br)cc4c3=O)cc2)CC1	1	0	-10	12	i	-6	3	3
COC(=O)c1ccc(C(c2c(N)n(Cc3ccccc3)c(=O)n(C)c2=O)N2CCOCC2)cc1 (stereo unspecified)	6	-16	5	10	i	-10	2	1
CCC(Sc1ccc(Cl)cc1)C(=O)Nc1nnc(-c2cccc([N+](=O)[O-])c2)s1 (stereo unspecified)	0	12	-2	-3	i	-13	4	-14
COc1ccc(C(=O)CN2C(=O)NC3(CCc4ccccc43)C2=O)cc1 (stereo unspecified)	-5	-9	-6	-65	i	-8	-2	2
Cc1nc(N2CCOCC2)c2c(C)c(C(=O)Nc3ccc(F)cc3F)sc2n1	-4	10	-1	-5	i	-12	.	.
O=C(c1ccccc1-c1nc(-c2ccccc2)no1)N1CCOCC1	7	-20	-7	.	i	5	9	6
CCOC(=O)Nc1cc(OC)c(OC)cc1Cc1nccc2cc(OC)c(OC)cc12	10	-5	9	4	i	6	-3	-3
CC(C)(C(=O)c1ccccc1)/[N+]([O-])=C/c1ccccc1	.	-8	.	-20	i	-13	10	4
CCS(=O)(=O)Nc1ccc(C2=NN(S(=O)(=O)CC)C(c3cccs3)C2)cc1 (stereo unspecified)	-13	-12	-10	7	i	-2	-12	-2
CCc1ccc(N(CC(=O)NC2CCCCC2)C(=O)CNC(=O)c2ccco2)cc1	2	-13	2	-25	i	-5	0	2
The results go on.
SMILES	PABP FP inh	CSC inhib	eIF4H FP inh	HIV Env fusion	Rce1 inh	Yeast UUG start	MT1-MMP act inh	MT1-MMP act inh RFP	others
Cc1ccc(S(=O)(=O)N(C)C)cc1NC(=O)CCNC(=O)c1ccccc1Cl	0	0	3	4	i	-6	3	0
Cn1cccc1Cc1nnc(SCC(=O)Nc2ccccc2F)n1CCc1ccccc1	-8	-33	-12	-23	i	-12	-4	3
CCOC(=O)N1N=C(c2ccccc2)CC1(O)C(C)(F)F (stereo unspecified)	-1	14	-6	-8	i	.	-2	4
CCCn1c(N)cc(=O)n(CCC)c1=O	14	-3	-2	2	i	.	-3	0
Clc1ccc(-c2nnc(-c3ccccc3)c(-c3c[nH]c4ccccc34)n2)cc1	-1	-8	-7	-8	i	-24	3	5
COc1cc(C(=O)OCC(=O)c2c(N)n(C)c(=O)n(C)c2=O)ccc1OCCC(C)C	0	-4	-12	-3	i	.	2	0
CCCn1c(=O)c2ccccc2n2c(SCC(=O)c3cc(C)n(CCOC)c3C)nnc12	32	.	14	16	.	.	2	4
O=S(=O)(N/N=C/c1ccc(OC2CSC2)cc1)c1ccccc1	1	19	-2	-12	i	-13	11	2
CCCCC(=O)NNC(=S)NC(=O)c1ccc(C)cc1	5	13	8	-2	i	.	3	1
CCCCNC(=O)CSc1nc2ccc(C)cc2[nH]1	-3	-1	90	3	i	.	-1	1	eIF4H FP inh retest=36;PABP FP inh retest=38
O=C1c2ccccc2C(Nc2ccc(Cl)cn2)N1Cc1ccccc1 (stereo unspecified)	0	7	5	-3	i	-6	0	-18
COC(=O)C(C)Oc1ccc(Cc2ncc(C(F)(F)F)cc2Cl)cc1 (stereo unspecified)	0	-5	-7	-2	i	-12	-3	-5
CCOc1ccc(C2NC(=O)NC(C)=C2C(=O)OCc2ccccc2)cc1 (stereo unspecified)	2	20	-6	-4	i	-9	2	-3
CCN(C(=O)CCN1C(=O)c2ccccc2C1=O)C1CCCCC1	10	-5	-12	.	i	-20	2	2
COC(=O)c1ccc(N2CCCCC2)c(NS(=O)(=O)c2ccc(C)cc2)c1	-7	.	6	.	i	-3	-13	-12
O=C(CSc1nc2ccccc2s1)c1cc2ccccc2o1	103*	4	60*	.	i	.	-26	10
O=C(CN1C2=NCCCN2c2ccccc21)c1ccc(Br)s1	5	.	-11	.	i	-3	11	9
Cn1c(=O)[nH]c(=O)c2c1nc(CN1CCN(c3ccccc3F)CC1)n2CCc1ccccc1	8	14	-5	-42	i	-13	-4	-3
Cc1nc2c(nnn2Cc2ccccc2Cl)c(=O)[nH]1	1	-2	-1	-10	i	-12	-4	0
CCC(=O)N1CCc2cc(S(=O)(=O)NCCC(=O)NCc3ccccc3Cl)ccc21	2	-25	-11	5	i	-10	3	0
CCOc1ccc(C(=O)N(CN2CCCC2=O)c2ccc(C)cc2)cc1	5	.	4	-17	i	.	.	.
CC(/C=N/NC(=O)c1ccc(Cn2cc([N+](=O)[O-])cn2)o1)=C\c1ccccc1	-3	.	-9	-11	i	3	7	-4
CCC(C)NC(=O)CC(NS(=O)(=O)c1ccc(C)cc1)c1ccc(OC)cc1 (stereo unspecified)	5	.	2	14	i	.	1	1
Cc1ccc(-c2nc3ncccc3o2)cc1NC(=O)Cc1ccc(Cl)cc1	7	.	1	-97	i	-17	2	-1
CCOC(=O)C1Oc2ccccc2C(c2ccc(F)cc2)=C1C(=O)OC (stereo unspecified)	.	.	.	4	.	-12	-4	-3
The results go on:
SMILES	PABP FP inh	CSC inhib	eIF4H FP inh	HIV Env fusion	Rce1 inh	Yeast UUG start	MT1-MMP act inh	MT1-MMP act inh RFP	others
CSCCC(NC(=O)COc1ccccc1)C(=O)OC(C)C(=O)Nc1ccccc1C (stereo unspecified)	.	-2	.	-5	i	-18	3	2
CCOc1ccc(S(=O)(=O)NCC2CCCO2)cc1 (stereo unspecified)	4	.	-3	-57	i	1	-1	2
O=C(Nc1ccc(S(=O)(=O)NC2=NCCCCC2)cc1)c1cccs1	.	-16	.	.	.	-5	1	-3
O=c1ccn(Cc2ccccc2)cc1	3	-27	-11	6	i	-26	2	0
Cc1nc2c(oc3ccc(Cl)cc32)c(=O)[nH]1	16	-11	0	3	i	-9	-2	-1
Cc1ccc(NC(=O)CCS(=O)(=O)c2ccc(Br)cc2)nc1	2	-12	-13	9	i	-12	-2	0
C=CCNc1nnc(SC2CC(=O)N(c3ccc(OC)cc3)C2=O)s1 (stereo unspecified)	0	-11	-2	21	i	-22	3	4
COC(=O)CC/C(C)=N\Nc1ccc([N+](=O)[O-])cc1[N+](=O)[O-]	0	-5	-6	-17	i	19	11	2
CC1(C)CC(=O)C2=C(C1)N(Cc1ccco1)C(=O)C2(O)C(F)(F)F (stereo unspecified)	-12	-13	-1	3	i	.	4	4
Cn1nnc(NC(=S)NC(=O)c2cccc3c(Br)cccc23)n1	-4	-7	-13	4	i	-23	-4	2
C=CCn1cc(CN2CCC(C(=O)Nc3cccc(-c4cccc(F)c4)c3)CC2)c(C)n1	-8	0	-5	20	i	-16	4	-3
O=C(Cn1ncc2c(=O)oc3ccccc3c21)NCc1cccnc1	17	.	5	-2	i	.	-9	-1
O=C(NC1CC2CCCC(C1)N2C(=O)NC1CCCCC1)c1ccccc1 (stereo unspecified)	3	-10	-8	-31	i	-4	3	2
Cc1nn(Cc2ccc([N+](=O)[O-])cc2)c(=O)n1-c1c(F)cccc1F	-3	3	5	-3	i	.	-6	-16
O=C(NCC1CCCN(Cc2ccccc2F)C1)c1cccc(C(F)(F)F)c1 (stereo unspecified)	-1	4	-6	-82	.	.	5	5
Nc1cc(N)nc(SCC(=O)Nc2ccccc2)n1	-1	-2	-7	-26	.	-12	5	8
COc1ccc(-c2csc(NC(=O)c3cccc(N4C(=O)CCC4=O)c3)n2)cc1OC	.	.	.	3	.	-19	3	-1
CCN(CC)CCCOC(=O)C1(c2ccccc2)CCCC1	8	-7	2	.	i	.	-2	7
Cc1c(Cl)cccc1NC(=S)NCc1cccn1C	10	-13	2	6	i	-4	-4	-1
Cc1ccc(-c2cc3cccc[n+]3cc2-c2ccc(C)cc2)cc1	3	4	-5	45	+	6	-8	-28
O=C(c1cc(F)ccc1F)C1CCCN(C(=O)c2ccco2)C1 (stereo unspecified)	-6	-3	2	-1	i	3	1	0
Cc1nn(Cc2ccc(C(=O)O)o2)c(C)c1[N+](=O)[O-]	5	-7	4	-5	i	.	3	5
CCC1CCCCN1C(=O)Cn1c(C(=O)OC)cc2ccsc21 (stereo unspecified)	-3	-5	-8	1	i	-17	-1	-4
O=C(NCC1CCCO1)c1ccc2c(c1)OCO2 (stereo unspecified)	8	-8	-9	.	i	-36	7	4
CCCOc1ccc(-c2cnc(SCC(N)=O)nc2N)cc1	-9	0	8	.	i	-11	2	2
CS(=O)(=O)Nc1ccc(C(=O)NC2CCCC2)cc1	7	-9	0	-82	i	-6	1	1
Clc1ccc2c(NCc3cccs3)ncnc2c1	-4	3	-17	11	i	-8	-4	-25

Grouped by structure, the entries above containing a CF3 group (five)
SMILES	PABP FP inh	CSC inhib	eIF4H FP inh	HIV Env fusion	Rce1 inh	Yeast UUG start	MT1-MMP act inh	MT1-MMP act inh RFP	others
COc1cc(NC(=O)c2ccc(COCC(F)(F)F)cc2)cc(OC)c1OC	3	6	-4	.	i	-19	-4	-2
COc1ccccc1NC(=O)c1sc2nc(Cc3ccccc3)cc(C(F)(F)F)c2c1N	113*	2	65*	.	i	.	-110	0
COC(=O)C(C)Oc1ccc(Cc2ncc(C(F)(F)F)cc2Cl)cc1 (stereo unspecified)	0	-5	-7	-2	i	-12	-3	-5
CC1(C)CC(=O)C2=C(C1)N(Cc1ccco1)C(=O)C2(O)C(F)(F)F (stereo unspecified)	-12	-13	-1	3	i	.	4	4
O=C(NCC1CCCN(Cc2ccccc2F)C1)c1cccc(C(F)(F)F)c1 (stereo unspecified)	-1	4	-6	-82	.	.	5	5
